D2 PAM – positive allosteric modulators of human D2 dopamine receptor; P14416; DiscoveRx D2 beta-arrestin cells, luminescence, 90 min; 100% = 57 uM dopamine signal; potentiation, % (concentration not given with the values); 360,000 tested, 0.23% active; AID 624464; active = potentiation of 50% or more; inconclusive = 30% to 50%; inactive = 30% or less;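 note: compound concentration not given in the record; tested on top of an EC20 dose of dopamine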
Target sequence (P14416 whole entry, looked up): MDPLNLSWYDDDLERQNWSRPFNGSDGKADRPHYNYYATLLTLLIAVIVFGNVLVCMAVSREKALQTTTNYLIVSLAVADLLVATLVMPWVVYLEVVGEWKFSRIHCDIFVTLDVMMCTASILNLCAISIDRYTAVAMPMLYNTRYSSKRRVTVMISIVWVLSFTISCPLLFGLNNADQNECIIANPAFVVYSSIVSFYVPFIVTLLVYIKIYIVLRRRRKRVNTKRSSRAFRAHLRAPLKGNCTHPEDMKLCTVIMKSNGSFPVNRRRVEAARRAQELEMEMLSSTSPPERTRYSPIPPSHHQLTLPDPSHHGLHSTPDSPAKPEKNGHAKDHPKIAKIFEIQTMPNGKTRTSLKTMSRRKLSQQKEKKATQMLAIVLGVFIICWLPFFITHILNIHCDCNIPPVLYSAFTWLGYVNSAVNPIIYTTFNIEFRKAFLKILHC
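PathHunter beta-arrestin assay in DiscoveRx D2 cells. Compounds were added with an EC20 of dopamine (50 nM final) for 90 min at 37 deg C. Luminescence was read 1 h after detection reagent, with 57 uM dopamine as the EC100 control.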
TRPML1 ag – human mucolipin-1 channel agonism | TRPML1-expressing cells, Ca2+ dye fluorescence, FDSS; host cell line not named in the record; reference of the full effect not given here | activation, % (test concentration not listed) | 410,000 tested, 0.12% active | AID 624414; in the data active = activation above about 50%; inconclusive = about 30% to 50%; inactive = below about 30%; note: 0% is about no effect; the text of the record puts the active cut at 80%
Target sequence (Q9GZU1 whole entry, looked up): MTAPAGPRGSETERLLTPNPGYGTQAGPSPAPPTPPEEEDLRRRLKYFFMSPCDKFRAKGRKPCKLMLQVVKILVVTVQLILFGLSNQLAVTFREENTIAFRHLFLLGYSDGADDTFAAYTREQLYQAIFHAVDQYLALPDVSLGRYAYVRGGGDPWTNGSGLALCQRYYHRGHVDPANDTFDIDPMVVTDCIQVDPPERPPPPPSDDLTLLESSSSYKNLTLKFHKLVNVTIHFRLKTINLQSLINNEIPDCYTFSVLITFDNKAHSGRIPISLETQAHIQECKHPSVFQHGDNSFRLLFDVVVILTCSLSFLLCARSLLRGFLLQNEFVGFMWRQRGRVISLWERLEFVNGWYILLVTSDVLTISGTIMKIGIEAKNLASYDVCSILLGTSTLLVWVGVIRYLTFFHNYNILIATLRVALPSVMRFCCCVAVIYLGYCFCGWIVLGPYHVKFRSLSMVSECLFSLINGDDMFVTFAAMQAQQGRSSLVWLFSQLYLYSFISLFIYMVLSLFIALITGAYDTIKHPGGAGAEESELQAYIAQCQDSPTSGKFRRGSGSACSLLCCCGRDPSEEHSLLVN
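Agonist activity was taken from a 110 s kinetic Ca2+ dye read on the FDSS after pinning compounds onto TRPML1-DL cells. The cells were seeded at 1,500/well with Tet inducer, incubated about 16 h, then dye-loaded at room temperature.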
D2 ag – human D2 receptor agonism in beta-arrestin assay; P14416; DiscoveRx PathHunter D2 beta-arrestin, luminescence, 90 min; 100% = 57 uM dopamine signal; activation, % (test concentration not listed); 360,000 tested, 0.084% active; in the data active = activation above about 40%; inconclusive = about 15% to 40%; inactive = below about 15%; note: compound concentration not given in the record; the text of the record calls up to 30% inactive
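Agonist mode: compounds alone added to overnight-plated D2 PathHunter cells for 90 min at 37 C, with 57 uM final dopamine (EC100) defining full response. Beta-arrestin recruitment detected by chemiluminescent reagent, read after 1 h at ambient temperature.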
Six1-Eya2 inh – inhibitors of human Six1/Eya2 interaction | Q15475+O00167 | AlphaScreen GST-Six1/His-Eya2 binding, biochemical; stronger effect = lower value; control for the full effect not named in the record | activity change, % (test concentration not listed) | 360,000 tested, 0.56% active | AID 651725; in the data active = activity change below about -65%; inconclusive = about -30% to -65%; inactive = above about -30%; note: % is set by controls: 0 for no effect and ±100 for the full control effect; compound concentration not given in the record
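AlphaScreen with GST-Six1 and His-Eya2 (5X mix: 250 nM and 500 nM), glutathione donor and nickel acceptor beads; buffer 50 mM Tris pH 8.0, 300 mM NaCl, 1 mM TCEP; 1 h at 37 C in the dark.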
TRPML1 inh – inhibitors of human TRPML1 channel; AID 624415; 390,000 tested, 0.02% active; TRPML1-inducible cells, Ca2+ dye fluorescence, FDSS; stronger effect = lower value; inhibition of EC80 agonist-evoked calcium signal; activity change, negative = inhibition, % (no concentration beside the values); in the data active means activity change below about -50%; inconclusive means about -30% to -50%; inactive means above about -30%;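 note: stimulus is agonist 54-4 at its EC80 concentration; % is set by controls: 0 for no effect and ±100 for the full control effect; compound concentration not given in the record; the text of the record puts the active cut at -80%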
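Tet-induced TRPML1-DL cells loaded with Ca8 no-wash calcium dye were read kinetically on FDSS. Compound addition was followed by EC80 agonist 54-4 (4 uM final); inhibition was read over 110 s.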
PINK1 modulator – modulators of PINK1 expression; PINK1 immunofluorescence, high-content cytometry, 24 h; Potency, µM (series often up to 76.6 µM), for inactives: top-dose activation (PINK1 increase), actives largely listed as activators; 410,000 tested, 0.2% active; active = well fitted activation curve with a large enough effect; inconclusive = small, poorly fitted or top-dose-only effect; inactive = flat fitted curve, though single readings scatter; cell line not stated here;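 note: potency is the fitted concentration of half-maximal effect; % of control where 0% means no effect; nearly all actives have a fitted effect of over 65% in size; a mitochondrial uncoupler was the plate control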
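Compound titrations (5 concentrations, 24 h) on a stable cell line; DMSO and CCCP controls. Endpoint: fixed-cell PINK1 immunofluorescence with mitochondrial, cell and nuclear markers, scanned by microplate cytometer.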
The depositor's hits bear a star; ? = inconclusive; nt = no result given; & = joins results of further samples; [ ] = remark or other dose.

Compound	D2 PAM	TRPML1 ag	D2 ag	Six1-Eya2 inh	TRPML1 inh	PINK1 modulator
CC(=O)N1c2ccc(S(=O)(=O)N(C)CC(=O)N(C)Cc3ccccc3)cc2CC1C (configuration not stated)	-10	-0.9	0.1	-1	-11	-0.2%
C[C@H](CO)N1C[C@H](C)[C@@H](CN(C)C(=O)Nc2ccc3c(c2)OCO3)Oc2c(cccc2N(C)C)C1=O	-1	-0.4	-0.9	0	43	0.3%
CC(C)(C)c1ccc(OCC(O)CN2CCN(c3ccccn3)CC2)cc1 (configuration not stated)	55*	3.3	?	-1	29	5.5%
COc1cccc(-c2ncc3ccccc3c2COC(=O)c2ccco2)c1	-3	-0.5	-1.9	-8	-6	-1.0%
COc1cc(C2CC(=O)c3cnc(N)nc3C2)cc(OC)c1OC (configuration not stated)	-5	-0.4	-0.5	0	4	3.9%[38.3 µM]
O=C(CN1C(=O)C2(OCCO2)c2ccccc21)c1ccc(Cl)cc1	-12	1.9	-0.6	3	9	-0.4%[38.3 µM]
NC(=O)CC12CC3CC(C1)CC(CC(N)=O)(C3)C2	3	-0.1	1.6	1	-12	?
CCOc1ncccc1C(=O)OCc1ccc(C#N)cc1	-1	-0.7	-3.5	11	1	-0.3%
Cc1ccc(-c2cnc3cccnn23)cc1F	-5	-1.0	-0.3	21	nt	-1.0%
COc1cc(NC(=O)Cn2cnc3c(nc4n3CCCCC4)c2=O)cc(OC)c1OC	-7	-0.5	-2.4	1	-3	-0.5%
CCN(CC)C(=O)[C@H]1CC(CC(=O)NCc2ccco2)C(=O)N2CCc3c([nH]c4ccccc34)[C@]12C (some centres not stated)	nt	0.4	-2.1	-5	16	-0.6%
CC(=O)c1ccccc1C(=O)N1CCCC(N2CCN(Cc3ccc4c(c3)OCO4)CC2)C1 (configuration not stated)	-36	-0.5	-4.1	-1	4	-1.4%
COc1ccc(NC(=O)CN2C(=O)/C(=C3\SC(=S)N(CCC(=O)O)C3=O)c3ccccc32)cc1	-5	0.1	0.5	-1	14	1.0%
COC(=O)CCNC(=O)CCc1ccc(S(=O)(=O)N2CCCCCC2)cc1	-2	0.3	6.0	7	7	4.4%
CCOc1cc(Br)ccc1S(=O)(=O)N1CCC(C(N)=O)CC1	-8	0.2	-0.8	0	4	0.4%

Compound	D2 PAM	TRPML1 ag	D2 ag	Six1-Eya2 inh	TRPML1 inh	PINK1 modulator
Cc1c(NN=C(C#N)C#N)c(=O)n(-c2ccccc2)n1C	0	-0.1	-0.5	-2	-7	2.2%
CCN1CCN(Cc2c(O)ccc3c(=O)c(Oc4ccccc4C(C)C)c(C(F)(F)F)oc23)CC1	nt	0.5	nt	nt	15	2.6%
Cc1onc(-c2ccccc2Cl)c1C(=O)NCc1ccc(S(N)(=O)=O)cc1	-10	-0.4	-1.3	2	22	0.0%
FC(F)(F)c1ccnc(NCc2ccc(Cl)cc2)n1	2	0.0	3.5	22	1	6.3%
COc1ccc2oc(C(=O)OCC(=O)NC(=O)c3ccccc3)c(C)c2c1	-17	-0.4	-0.6	1	-8	-0.2%
CCCNC(=O)c1ccc(N2CCC3(CC2)CC(c2ccccc2)=NO3)c([N+](=O)[O-])c1	-9	-0.6	-1.5	-11	9	0.9%
CN(CCC#N)S(=O)(=O)c1cc2c3c(c1)CCN3C(=O)CC2	-9	-0.3	5.4	0	-8	1.2%
CCOc1cc(C2NC(=O)NC(c3ccccc3)=C2C(=O)c2ccccc2)c(Br)cc1OCC(=O)O (configuration not stated)	-2	0.5	-3.3	3	9	0.0%
CC(=O)C(=Cc1cccc(C#N)c1)C(=O)c1ccccc1	-9	1.5	-4.6	5	nt	-0.2%
Cc1cccc(NC(=O)c2c(C)oc3ncn(CC(C)C)c(=O)c23)n1	nt	-0.1	nt	nt	3	-1.2%
CCc1ccccc1NC(=O)c1ccc2c(c1)CCN2S(C)(=O)=O	4	-0.2&-0.6	4.4	2	-7&-11	7.0%&2.9%
Cc1cc(C(=O)CCl)c(C)n1-c1cccc(S(=O)(=O)N2CCOCC2)c1	-8	2.5	-2.1	-69*	-4	-1.7%
COC(=O)c1cc(CNC(=O)Cc2ccsc2)ccc1OC	3	0.8	5.3	-2	3	-0.2%
CCCCCCn1c(SCCCC)nc2c1c(=O)[nH]c(=O)n2C	-6	0.4	-5.2	-3	-1	5.2%
C#CC(CC)(CC)NC(=S)Nc1ccc(S(N)(=O)=O)cc1	-1	0.1	0.2	-2	-5	-2.0%

Compound	D2 PAM	TRPML1 ag	D2 ag	Six1-Eya2 inh	TRPML1 inh	PINK1 modulator
COC(=O)C[C@H]1C[C@H]2c3cc(NS(=O)(=O)c4cccc(OC)c4)ccc3O[C@H]2[C@@H](CO)O1	1	-0.4	-6.2	1	-5	1.3%
O=C(O)C1CC=CCC1C(=O)Nc1ccc(F)c(F)c1 (configuration not stated)	-12	-0.3	0.2	7	-8	1.7%
CC(C)OP(=O)(OC(C)C)C1(O)C(=O)Nc2ccc(Br)cc21 (configuration not stated)	-44	-0.7	-11	12	2	1.3%
CN(C)c1ccc(CNC(=O)C2CCCN(S(=O)(=O)c3ccc4c(c3)oc(=O)n4C)C2)cc1 (configuration not stated)	nt	-0.9	nt	nt	28	0.6%
COc1ccc(-c2c(-c3ccc(OCC(=O)NN)cc3O)n[nH]c2C)cc1OC	4	-0.8	0.6	-1	20	1.4%
CCCN1C(=O)c2ccc(C(=O)NC3=NCCS3)cc2C1=O	-10	0.2	-8.4	7	1	1.1%
Cc1c(C(=O)O)c(=O)n(-c2ccccc2)n1-c1ccccc1	-16	-0.2	-3.4	1	-5	-1.1%
CCOc1ccc(C(C)NC(=O)Cc2ccccc2)cc1OCC (configuration not stated)	-12	0.4	-4.3	-1	31	-0.8%
COc1ccc(N2CC(C(=O)Nc3ccccc3C(=O)NC3CC3)CC2=O)cc1 (configuration not stated)	-2	-0.3	-1.2	0	9	1.8%
COc1ccc(-c2nc(N)c(C#N)c(-c3cccnc3)c2C)cc1	-25	0.2	-6.7	-2	22	2.1%
Cc1cc(S(=O)(=O)Nc2ccc(N3CCOCC3)cc2)ccc1Br	-12	0.5	-3.0	-14	24	1.4%
CC1=NN(C(N)=S)C(=O)C1N=Nc1ccccc1O (configuration not stated)	-43	0.6	-6.7	-28	2	0.8%
O=C(Cn1ncc2c(=O)oc3ccccc3c21)NC1CC1	-2	-1.0	-0.5	7	-8	-1.8%
Cc1ccc(Cl)cc1N1CCN(S(=O)(=O)c2c(C)[nH]c(C)c2C(=O)N2CCCC2)CC1	-13	-0.1	0.5	-2	13	0.1%
O=C(Nc1ccc(-c2nc3ccccc3[nH]2)cc1)c1cccc(N2C(=O)CCC2=O)c1	-19	0.8	-0.7	-15	18	0.3%

3 successive entries out of the list so far, for reference:
Compound	D2 PAM	TRPML1 ag	D2 ag	Six1-Eya2 inh	TRPML1 inh	PINK1 modulator
COC(=O)C[C@H]1C[C@H]2c3cc(NS(=O)(=O)c4cccc(OC)c4)ccc3O[C@H]2[C@@H](CO)O1	1	-0.4	-6.2	1	-5	1.3%
O=C(O)C1CC=CCC1C(=O)Nc1ccc(F)c(F)c1 (configuration not stated)	-12	-0.3	0.2	7	-8	1.7%
CC(C)OP(=O)(OC(C)C)C1(O)C(=O)Nc2ccc(Br)cc21 (configuration not stated)	-44	-0.7	-11	12	2	1.3%

Further compounds follow.
Compound	D2 PAM	TRPML1 ag	D2 ag	Six1-Eya2 inh	TRPML1 inh	PINK1 modulator
COc1ccc([C@H]2[C@H](C(C)=O)N3N=Cc4ccccc4C3C23C(=O)OC(C)(C)OC3=O)cc1 (some centres not stated)	-8	-0.9	0.4	1	-9	6.6%
COc1cccc(NC(=O)N2C3CCCC2CC(NC(C)=O)C3)c1 (configuration not stated)	0	0.3	-3.1	2	28	2.4%
CN(C)CCN(C(=O)C1CCN(S(=O)(=O)c2cccs2)CC1)c1nc2ccccc2s1	-8	0.4	0.6	6	16	0.2%
Cc1ccc(C(C)NC(=O)COC(=O)C2=COCCO2)cc1C (configuration not stated)	-4	-0.9	-1.8	-1	12	-0.1%
c1ccc(COc2ccc(CNCc3cccnc3)cc2)cc1	-20	0.2	0.5	8	13	-0.8%
Cc1cccc(S(=O)(=O)c2cn(C)c3cc(N4CCCCCC4)c(F)cc3c2=O)c1	nt	2.0	nt	nt	22	25%
C/C(=N\O)c1ncc(C(F)(F)F)cc1Cl	6	-0.9	-3.6	-2	33	1.0%
CCc1ccc2oc(-c3ccc(N)cc3)nc2c1	-6	0.0	0.0	-5	-5	-12%[38.3 µM]
COc1ccc(NS(=O)(=O)c2ccc(O)c(NC(=O)c3ccc(S(=O)(=O)N4CCCCCC4)cc3)c2)cc1	-21	1.1	-2.7	-7	-4	?
CCN1CCN(c2ccc(N3CCN(S(=O)(=O)c4ccc(C)c([N+](=O)[O-])c4)CC3)nn2)CC1	-7	0.1	-2.9	-4	6	-3.9%
COCCNC(=O)C(=O)Nc1ccc(Cl)cc1C	1	-0.3	2.5	0	-3	3.7%
COc1ccc(NC(=O)CSc2nc3ccccc3c(=O)n2CCC(=O)NC2CCCCC2)c(OC)c1	nt	-0.1	nt	nt	-13	2.7%
O=c1nc(N2CCCC2)nc(Nc2ccccc2)[nH]1	-5	1.8	-3.5	-13	23	-0.4%
Cc1ccc(N2Cc3ccccc3C2=S)cc1	1	-0.2	1.2	19	5	-1.6%
COc1ccc(CCNc2ccc([N+](=O)[O-])cn2)cc1	-5	2.4	5.8	-5	-3	0.2%

Compound	D2 PAM	TRPML1 ag	D2 ag	Six1-Eya2 inh	TRPML1 inh	PINK1 modulator
COc1ccc(CCNC(=O)CSc2nnc3c(n2)[nH]c2ccc(F)cc23)cc1OC	-1	0.1	0.8	7	-8	?
O=c1c2ccccc2nc(/C=C/c2ccc(Br)cc2)n1CCO	-8	2.5	-0.1	-8	5	6.1%
CCCc1nc(SCC(=O)N2c3ccccc3CC2C)c2c(C)c(C)sc2n1 (configuration not stated)	-12	0.6	-0.8	5	-3	4.5%[38.3 µM]
Cc1cccc(N(C)C(=S)Oc2ccc3ccccc3c2)c1	1	1.6	9.0	9	-14	3.0%
Cc1sc2ncnc(OCC(=O)Nc3ccc4c(c3)OCCO4)c2c1C	-1	-1.3	-4.2	-6	-6	0.6%
Cc1ccccc1OCC(=O)OCC(=O)NC1CC1	-8	-0.2	-3.5	9	2	-0.6%
O=C(c1ccc(Cl)c(S(=O)(=O)Nc2ccccc2C(=O)N2CCc3ccccc3C2)c1)N1CCc2ccccc2C1	6	2.5	-0.1	-16	-16	0.5%
CCc1ccc(S(=O)(=O)NCc2cn3cccc(C)c3n2)s1	-4	-1.5	0.6	3	-3	1.3%
C=C(C)COc1ccc(-c2[nH]ncc2Oc2ccc(OC)cc2)c(O)c1	-9	nt	6.7	-6	nt	-0.9%
O=C1OC(C(=O)O)Cc2ccccc21 (configuration not stated)	-12	0.5	1.7	3	22	-0.4%[38.3 µM]
O=C(CNC(=O)c1ccccc1C(=O)O)c1ccccc1	-3	-0.1	-3.3	1	9	4.2%
N=c1c(C(=O)NC2CCCC2)cc2c(=O)n3ccccc3nc2n1C1CCCCC1	-11	-0.3	-3.7	-5	19	13%
